D2 ag – activates the human D2 dopamine receptor; 0.084% of 360,000 active; DiscoveRx PathHunter D2 beta-arrestin, luminescence, 90 min; 100% = 57 uM dopamine signal; activation, % (test concentration not listed); in the data active = activation above about 40%; inconclusive = about 15% to 40%; inactive = below about 15%; further: compound concentration not given in the record; the text of the record calls up to 30% inactive
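DiscoveRx PathHunter D2 beta-arrestin cells (2,100/well) attached overnight, then compound-stimulated 90 min at 37 C in HBSS/10 mM HEPES/0.1% Tween-20 buffer; beta-galactosidase complementation read by luminescence after 1 h at ambient temperature. Dopamine 57 uM final (EC100) as control.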
Six1-Eya2 inh – blocks human Six1 binding to Eya2 | Q15475+O00167 | AlphaScreen GST-Six1/His-Eya2 binding, biochemical; stronger effect = lower value; control for the full effect not named in the record | activity change, % (test concentration not listed) | 0.56% of 360,000 active | AID 651725; in the data active = activity change below about -65%; inconclusive = about -30% to -65%; inactive = above about -30%; further: on the % scale 0 is the no-effect control and ±100 the full control effect; compound concentration not given in the record
Target sequence (O00167 whole entry, looked up): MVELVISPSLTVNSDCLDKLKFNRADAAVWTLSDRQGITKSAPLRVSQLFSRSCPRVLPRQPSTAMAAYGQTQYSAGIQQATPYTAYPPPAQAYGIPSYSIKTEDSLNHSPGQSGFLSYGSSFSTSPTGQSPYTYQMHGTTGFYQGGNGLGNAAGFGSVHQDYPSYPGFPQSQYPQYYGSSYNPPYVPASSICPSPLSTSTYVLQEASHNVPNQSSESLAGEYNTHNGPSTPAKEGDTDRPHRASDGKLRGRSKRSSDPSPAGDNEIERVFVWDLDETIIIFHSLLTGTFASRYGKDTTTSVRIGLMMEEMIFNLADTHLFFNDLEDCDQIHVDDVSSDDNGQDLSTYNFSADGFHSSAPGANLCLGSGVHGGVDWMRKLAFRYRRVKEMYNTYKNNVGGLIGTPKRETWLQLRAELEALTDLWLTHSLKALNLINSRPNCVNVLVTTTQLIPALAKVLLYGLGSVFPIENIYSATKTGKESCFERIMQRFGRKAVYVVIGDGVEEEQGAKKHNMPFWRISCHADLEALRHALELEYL
Target sequence (Q15475 whole entry, looked up): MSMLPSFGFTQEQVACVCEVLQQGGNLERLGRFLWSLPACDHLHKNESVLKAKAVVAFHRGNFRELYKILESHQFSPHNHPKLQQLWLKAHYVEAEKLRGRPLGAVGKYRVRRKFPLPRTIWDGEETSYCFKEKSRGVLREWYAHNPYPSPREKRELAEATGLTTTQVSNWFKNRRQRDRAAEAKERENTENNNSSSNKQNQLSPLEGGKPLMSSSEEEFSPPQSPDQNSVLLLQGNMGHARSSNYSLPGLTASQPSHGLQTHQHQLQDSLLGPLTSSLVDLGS
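Homogeneous AlphaScreen proximity assay pairing GST-Six1 with His-tagged Eya2 (added as 5X mix: 250 nM and 500 nM) in 50 mM Tris pH 8.0, 300 mM NaCl, 1 mM TCEP. Glutathione donor and nickel acceptor beads; 1 h, 37 °C, dark.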
TRPML1 ag – human mucolipin-1 channel agonism; Q9GZU1; TRPML1-expressing cells, Ca2+ dye fluorescence, FDSS; host cell line not named in the record; reference of the full effect not given here; activation, % (no concentration beside the values); 0.12% of 410,000 active; in the data active = activation above about 50%; inconclusive = about 30% to 50%; inactive = below about 30%; further: 0% is about no effect; the text of the record puts the active cut at 80%
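In this qHTS format, compounds were pin-transferred onto Ca8-dye-loaded TRPML1-DL cells induced with Tet overnight, and intracellular Ca2+ fluorescence was recorded kinetically for 110 s after a 10 s baseline. A subsequent 4uM final 54-4 (EC80) addition followed by a second 110 s read served as the antagonist phase.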
TRPML1 inh – inhibitors of human TRPML1 channel | activity change, negative = inhibition, % (test concentration not listed) | TRPML1-inducible cells, Ca2+ dye fluorescence, FDSS; stronger effect = lower value; inhibition of EC80 agonist-evoked calcium signal | 0.02% of 390,000 active | AID 624415; in the data active means activity change below about -50%; inconclusive means about -30% to -50%; inactive means above about -30%;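 further: stimulus is agonist 54-4 at its EC80 concentration; on the % scale 0 is the no-effect control and ±100 the full control effect; compound concentration not given in the record; the text of the record puts the active cut at -80%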
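Tet-induced TRPML1-DL cells loaded with Ca8 no-wash calcium dye were read kinetically on FDSS. Compound addition was followed by EC80 agonist 54-4 (4 uM final); inhibition was read over 110 s.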
PINK1 expr mod – modulators of PINK1 expression; 0.2% of 410,000 active; PINK1 immunofluorescence, high-content cytometry, 24 h; Potency, µM (highest dose often 76.6 µM), for the others: at the top dose activation (PINK1 increase), hits mostly activators; AID 624263; active = well fitted activation curve with a large enough effect; inconclusive = small, poorly fitted or top-dose-only effect; inactive = flat fitted curve, though single readings scatter; cell line not stated here;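 further: potency means the concentration at half of the fitted maximal effect; % of control where 0% means no effect; nearly all actives have a fitted effect of over 65% in size; a mitochondrial uncoupler was the plate control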
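Readout is PINK1 immunofluorescence, quantified alongside mitochondrial, cell and nuclear markers by laser-scanning microplate cytometry. Cells from a stable line were exposed to compound titrations (5 concentrations) for 24 hours, with CCCP controls.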
CtBP-E1A blk – CtBP/E1A binding inhibition; AlphaScreen GST-E1A/His-CtBP binding, 1536-well; stronger effect = lower value; control for the full effect not named in the record; activity change, % (concentration not given with the values); 0.49% of 340,000 active; AID 651724; in the data active means activity change below about -65%; inconclusive means about -30% to -65%; inactive means above about -30%; further: on the % scale 0 is the no-effect control and ±100 the full control effect
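GST-E1A and His-tagged CtBP (125 nM each as 5X stock) were preincubated with pin-transferred compound for 2 h at 37 °C in the dark, then glutathione donor and nickel acceptor beads were added for 1 h before AlphaScreen reading.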
Active calls of the source: *; ? = inconclusive; . = no result given; & = joins results of further samples; [ ] = another dose, or the depositor's remark.

SMILES	D2 ag	Six1-Eya2 inh	TRPML1 ag	TRPML1 inh	PINK1 expr mod	CtBP-E1A blk
COc1ccc(-n2c(-c3ccc(Cl)cc3)n[nH]c2=S)c(OC)c1	-2.5	-4.9	-0.7	11.2	-0.8%	5.0
O=C(Nc1cc([N+](=O)[O-])ccc1O)c1ccc2c(c1)C(=O)N(Cc1ccco1)C2=O	-10.5	?	0.2	-10.8	1.7%	?
CCOC(=O)N1CCC(N2C(=O)c3ccccc3C2Nc2ccc(C)cc2)CC1 (configuration not stated)	-3.4	-1.2	0.0	-11.8	1.8%	-3.6
CCOC(=O)c1cc(C)n(CCCN2CCOCC2)c1C	-3.0	-0.7	0.0	2.1	-0.1%	-2.4
O=C(COCc1cc(-c2ccc3c(c2)OCO3)on1)Nc1cccnc1	4.3	-1.3	-0.5	-8.4	0.5%	0.2
CN(C)C(=O)CSc1nnc(Cc2ccccc2)n1Cc1ccco1	2.3	1.5	2.0	-9.1	-3.1%	5.8
CN1CCN(S(=O)(=O)c2cccc(C(=O)Nc3cc(Cl)ccc3N3CCOCC3)c2)CC1	-2.1	-0.2	?	-9.1	1.7%	-3.9
COc1cccc(Cn2c(CNC(=O)Cc3cccc(C)c3)nc3cccnc32)c1	.	.	-0.7	10.6	-0.3%	.
CC(C)(C)OC(=O)N1CCC(NC(=O)c2ncn(Cc3ccccc3)c2C(=O)NC2CCN(C(=O)OC(C)(C)C)CC2)CC1	0.3	-7.1	-0.5	10.3	2.4%	-0.3
Cc1cccc(N2CCN(C(=O)c3ccccc3NC(=O)C3CC=CCC3C(=O)O)CC2)c1 (configuration not stated)	-0.2	-3.3	-0.1	-5.6	1.0%	3.9
Cc1cc(C)n(CCCNC(=O)c2ccco2)n1	3.2	-1.5	-0.6	-2.2	-1.0%	14.8
O=C(C1CC1)N1CCc2cc(Br)cc(S(=O)(=O)N3CCN(c4cccc(C(F)(F)F)c4)CC3)c21	.	.	-0.5	-15.2	1.5%	.
O=C(Nc1ccc2c(c1)C(=O)OC2)c1ccc(F)cc1F	-3.7	-13.4	0.5	6.8	11.4%	2.0
O=C(Cc1ccccc1)Nc1ccccc1C(=O)O	0.2	-1.2	-0.1	-5.2	3.3%	-2.8
Fc1ccc(Nc2nc(-c3ccncc3)cs2)cc1	0.7	9.4	-1.0	25.0	2.9%	-10.9
COc1ccc(N2CCN(S(=O)(=O)c3ccc4c(c3)NC(=O)CS4)CC2)cc1	-0.1	-6.6	0.2	13.1	2.0%	-5.5
Cc1ccc(C(=O)NCC(=O)OCC(=O)c2cc(C)n(Cc3ccco3)c2C)cc1	-5.3	-13.8	3.4	-4.7	-2.5%	-2.6
CNc1nc(Oc2ccc(=O)[nH]n2)nc(N2CCOCC2)n1	.	.	2.2	23.4	-0.9%	.
C=CCNC(=S)N/N=C/c1ccc(C(C)(C)C)cc1	0.4	-5.4	2.0	4.7	4.6%	5.4
Cc1ccccc1C1C(C#N)=C2N=C(N)c3c(sc4c3CCCCC4)N2C2=C1C(=O)CC(C)(C)C2 (configuration not stated)	-4.8	-8.2	0.0	4.4	?	-7.2

3 compounds already listed, sorted by the number in PINK1 expr mod, smallest number first.
Structure	PINK1 expr mod
COc1ccc(-n2c(-c3ccc(Cl)cc3)n[nH]c2=S)c(OC)c1	-0.8%
Cc1cccc(N2CCN(C(=O)c3ccccc3NC(=O)C3CC=CCC3C(=O)O)CC2)c1 (configuration not stated)	1.0%
CCOC(=O)N1CCC(N2C(=O)c3ccccc3C2Nc2ccc(C)cc2)CC1 (configuration not stated)	1.8%

Returning to the listing, repeating the 2 entries before the break.
SMILES	D2 ag	Six1-Eya2 inh	TRPML1 ag	TRPML1 inh	PINK1 expr mod	CtBP-E1A blk
C=CCNC(=S)N/N=C/c1ccc(C(C)(C)C)cc1	0.4	-5.4	2.0	4.7	4.6%	5.4
Cc1ccccc1C1C(C#N)=C2N=C(N)c3c(sc4c3CCCCC4)N2C2=C1C(=O)CC(C)(C)C2 (configuration not stated)	-4.8	-8.2	0.0	4.4	?	-7.2
O=C1CNC(=S)N1CCc1ccc(O)c(O)c1	2.7	-5.0	-0.7	-12.8	5.5%	5.7
COc1ccc(CC(=O)Nc2ccccc2C(=O)N2CCCC2)cc1	-2.8	1.9	-0.3	-4.1	1.4%	-7.1
COCCn1c(CN2CCN(c3cccc(Cl)c3)CC2)nc2c1c(=O)n(C)c(=O)n2C	-0.2	-7.3	0.6	3.9	0.1%	4.5
COCCCN1C(=O)C(O)=C(C(=O)c2ccco2)C1c1ccccc1 (configuration not stated)	2.6	-5.1	1.1	-10.7	1.7%	0.6
Cc1ccc(-c2cc(C(=O)NC(C)c3ccccc3)c3ccccc3n2)cc1C (configuration not stated)	.	.	-0.7	-6.6	0.3%	.
Cc1c(C(=O)OC(C)C(=O)N(C)Cc2ccccc2)oc2ccccc12 (configuration not stated)	3.6	1.6	0.1	6.5	-0.5%	11.1
O=C(COc1ccc2c(-c3ccccc3)cc(=O)oc2c1)NC1CCS(=O)(=O)C1 (configuration not stated)	1.4	-2.5	-0.4	50.6	1.8%	8.4
CCCCC(=O)Nc1ccc2c3c(cccc13)CC2	0.0	10.6	-0.1	39.0	1.3%	5.1
CCc1ccccc1NC(=O)CC1CS(=O)(=O)CC1CC(=O)Nc1ccccc1CC (configuration not stated)	-0.8	-0.4	1.1	-21.5	3.7%	-1.2
CC1CCN(Cc2ccc(-c3nnn(CC(=O)NC4CCCCC4)n3)cc2)CC1	-0.8	13.7	1.9	-18.4	0.8%	-0.4
Cc1ccc(C(=O)O)cc1N1CCCC1=O	-0.4	18.8	0.4	-2.2	-0.7%	1.1
CC(=O)c1cccc(NC(=O)N2C3CCC2CC(NC(=O)C2CC2)C3)c1 (configuration not stated)	-0.8	5.9	0.0	3.4	0.0%	6.6
N#Cc1c(NC(=O)COC(=O)C2CC3C=CC2C3)oc(-c2ccccc2)c1-c1ccccc1 (configuration not stated)	-3.7	-21.2	-1.3	18.2	2.8%	-3.8
COc1ccc(C(=O)OCC(=O)NC(=O)CCSc2ccccc2)cc1	-3.4	-2.2	0.7	-11.3	0.0%	.
N#CCc1ccc(NC(=O)Nc2cccc(Cl)c2)cc1	-2.4	-7.7	-0.7	8.9	10.0%	0.5
NS(=O)(=O)c1ccc(NC(=S)Nc2ccc(F)c(F)c2)cc1	-2.0	-0.8	0.4	-7.8	3.6%	7.2
Cc1ccccc1OCCC(=O)OCC(=O)N(C)c1c(N)n(Cc2ccccc2)c(=O)[nH]c1=O	-3.3	-8.8	-0.4	-12.1	3.1%	16.6
Cc1cnccc1CN(C)Cc1cn(C)nc1-c1cccc(Cl)c1	-2.4	0.0	3.0	-1.9	0.1%	2.5
Nc1c(C(=O)NCc2ccco2)c2nc3ccccc3nc2n1CCc1ccc(F)cc1	-1.3	-8.3	-0.4	-8.3	0.5%	-17.0
COc1ccc(OC)c(NC(=O)COC(=O)CN(C)S(=O)(=O)c2ccc(C)cc2)c1	-1.6	1.0	1.3	-7.7	8.9%	-16.3
O=C(NCC1CCCN1S(=O)(=O)c1cccs1)c1ccccc1 (configuration not stated)	3.8	1.4	-0.7	0.1	1.3%	1.9
O=C(CNC(=O)c1ccc(Br)o1)NCCc1ccc(F)cc1	-6.0	5.0	1.1	21.2	-1.4%	10.7
CCCc1nn2c(=O)cc(COC(=O)c3ccccc3NC(=O)COc3ccccc3F)nc2s1	.	.	0.0	23.7	1.7%	.
O=C1NC[C@H](CCCCN2C[C@H](Cc3ccc(O)cc3)N(CCc3ccccc3)C(=O)C2=O)N(CC2CCCCC2)C1=O	.	26.5	-0.2	.	1.4%	25.5
CCN(CC)c1cc(C)c2cc(NC(=O)/C=C/c3ccc(C)cc3)ccc2n1	.	.	1.1	-10.0	3.9%	.
CCOc1cc(C(=S)N2CCOCC2)ccc1OC(=O)c1ccccc1	9.3	-28.7	.	.	-0.6%	.
CCOC(=O)c1c(C)[nH]c(C)c1S(=O)(=O)N1CCOCC1	5.9	-9.2	0.5	-10.1	-0.9%	.
CCOC(=O)c1ccc(NC(=O)CC2SC3=NCCN3C2=O)cc1 (configuration not stated)	2.8	2.7	-0.6	-10.7	-1.2%	-9.6
O=C1[C@@H]2CSC(c3ccc(C(F)(F)F)cc3)N2C(=O)N1c1ccccc1 (some centres not stated)	.	.	-0.3	-5.8	0.1%	.
CCC(=O)OCCNc1cc(SCCC(=O)OC)c2nonc2c1[N+](=O)[O-]	-5.4	-6.8	-1.1&2.4	14.6	0.5%&0.6%	-16.4
O=C(O)c1cc(/C=C/C(=O)c2cc(F)ccc2O)c2c(c1)COCO2	-4.9	-6.3	-0.6	-4.1	1.2%	.
CCN1CCN(Cc2ccc(NC(=O)CC3Oc4ccc(C)cc4NC3=O)cc2)CC1 (configuration not stated)	-4.6	-0.5	0.1	-6.1	-0.2%	4.9
NS(=O)(=O)c1ccc(NCc2cnc3ccccc3c2)cc1	4.8	-0.3	-0.2	48.6	0.3%	4.6
CC(C)OCCCNC(=O)Cn1ncc2c(=O)oc3ccccc3c21	-4.5	17.7	-0.7	7.3	0.2%	29.8
C=CCN1C(=O)/C(=C2/Sc3ccc(OC)cc3N2C)SC1=Nc1ccccc1	5.7	0.0	0.4	-3.0	10.1%	.
Cn1c(SCC(=O)NC2CC2)nnc1-c1cccs1	0.2	-10.8	-0.7	7.7	0.8%	-14.8
CC(C)c1ccc(CC(=O)N2CCC2(C)C(=O)Nc2cnc3ccccc3c2)cc1 (configuration not stated)	-0.8	-6.6	-0.1	.	0.3%	-3.7
CCn1c(=O)cc(SCC(=O)N2CCN(Cc3ccc4c(c3)OCO4)CC2)c2ccccc21	1.8	?	0.5	2.4	3.7%[38.3 µM]	?
COCCCN(C(=O)c1cc(-c2ccco2)nc2ccccc12)c1c(N)n(Cc2ccccc2)c(=O)[nH]c1=O	3.0	-0.6	0.2	-15.9	1.2%	-23.2
COC(=O)CC1C(=O)NCCN1C(=S)Nc1ccccc1 (configuration not stated)	-4.1	2.7	-0.6	-1.6	1.1%	-1.9
CCC(CC)NC(=O)COC(=O)c1cc(Br)ccc1Cl	-0.5	8.6	0.6	25.7	1.6%	-16.6
CCOc1ccc(CN(C)CC(=O)Nc2ccc([N+](=O)[O-])cc2Cl)cc1	-0.6	-17.7	1.4	-1.0	6.8%	-15.6
CCOc1ccccc1NC(=O)CC(c1ccc(F)cc1)N1Cc2ccccc2C1=O (configuration not stated)	.	.	0.9	31.3	5.9%	.
Cc1cccc(OCCN2C(=O)C(=O)c3cccc(C)c32)c1	-9.8	-10.0	-0.4	3.2	4.3%	3.3
O=C(c1ccc2c(c1)N(Cc1cccc(Cl)c1)C(=O)c1ccccc1S2(=O)=O)N1CCCCC1	.	.	1.3	13.9	3.6%	.
O=C(c1ccco1)N1CCN(c2ncnc3c2cnn3-c2ccccc2)CC1	1.7	-23.4	-1.0	-2.8	-1.5%	-12.0
COc1ccc(NC(=S)NC23CN4CN(CN(C4)C2)C3)c(OC)c1	-2.3	0.9	-0.3	-23.0	4.0%	9.0
